Assay outcomes from PubChem.
HSV augment: enhancers of HSV replication in host cells, fold increase, host cell viability. HSV replication augmentation in cells. 220,000 compounds, 0.005% hits. maximum fold increase;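 active = peak rise of 1.5-fold or more in the series; tested in PC3 cells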;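 note: first round at 10 µM; read as green reporter fluorescence; hits show the peak of a series up to 25 µM; 1 = signal of infected wells without compound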
PKD1 kinase inh: inhibitors of human PKD1 kinase, biochemical, fluorescence polarization; PKD1 kinase fluorescence polarization assay; inhibition, %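 (about 10 µM by stock and volumes)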; 200,000 compounds, 0.056% hits; AID 797, 2007;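 active = inhibition of 50% or more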;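 note: controls were vehicle for no effect and a reference inhibitor for full effect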
Target sequence (Q15139 whole entry, looked up): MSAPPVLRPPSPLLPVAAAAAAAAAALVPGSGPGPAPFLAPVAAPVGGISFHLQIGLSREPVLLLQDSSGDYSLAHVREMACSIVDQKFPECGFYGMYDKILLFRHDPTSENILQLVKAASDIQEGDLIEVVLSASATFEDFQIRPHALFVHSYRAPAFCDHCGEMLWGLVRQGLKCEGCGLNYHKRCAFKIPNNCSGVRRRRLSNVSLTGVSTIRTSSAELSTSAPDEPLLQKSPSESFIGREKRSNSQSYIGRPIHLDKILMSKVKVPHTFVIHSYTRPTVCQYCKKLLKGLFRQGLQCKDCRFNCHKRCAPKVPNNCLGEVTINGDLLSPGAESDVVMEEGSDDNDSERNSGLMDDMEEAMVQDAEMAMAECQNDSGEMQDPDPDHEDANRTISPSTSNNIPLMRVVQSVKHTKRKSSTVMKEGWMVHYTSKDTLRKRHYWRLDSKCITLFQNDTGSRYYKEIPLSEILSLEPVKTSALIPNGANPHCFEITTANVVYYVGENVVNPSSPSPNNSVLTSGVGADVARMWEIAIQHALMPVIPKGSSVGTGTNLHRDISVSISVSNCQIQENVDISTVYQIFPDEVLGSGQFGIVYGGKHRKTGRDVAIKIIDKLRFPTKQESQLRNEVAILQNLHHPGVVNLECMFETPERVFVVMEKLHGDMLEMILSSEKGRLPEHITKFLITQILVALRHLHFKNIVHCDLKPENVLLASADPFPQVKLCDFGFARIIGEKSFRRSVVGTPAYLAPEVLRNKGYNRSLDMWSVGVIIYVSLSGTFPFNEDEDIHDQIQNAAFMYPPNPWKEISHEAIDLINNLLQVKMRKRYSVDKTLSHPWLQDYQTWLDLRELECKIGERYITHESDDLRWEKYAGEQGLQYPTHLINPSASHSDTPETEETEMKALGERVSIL
GALR2 ag: GALR2 receptor agonists, primary screen, cell-based; Galanin receptor type 2 (Homo sapiens), O43603; GALR2-expressing cells, agonist activation read-out; activation, %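 (tested at 5 µM)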; 140,000 compounds, 0.48% hits;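 active = above mean plus 3 SD of all compounds, about 5% in these data, not always enough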;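 note: 0% = vehicle buffer wells and 100% = reference agonist at full effect; tested in CHO reporter cells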
RGS16-Gao HTS: modulators of RGS16 binding to Galphao, primary screen, biochemical, human proteins, multiplexed bead flow cytometry. Regulator of G-protein signaling 16 (Homo sapiens) + Guanine nucleotide-binding protein …. bead-based flow cytometry RGS16-Galphao binding, fluorescence; actives lie on both sides. binding response (% of control), % at 10 µM. 220,000 compounds, 0.38% hits. AID 1441, 2008;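 active = below 25% or above 175%, edge rows of some plates excepted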;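 note: Galphao activated by GDP with aluminum fluoride before binding; 100% = wells without compound and 0% = beads without RGS; some results beyond the cut were filed as inactive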
INS promoter inh: inhibitors of insulin promoter-driven GFP, primary screen, imaging, TRM-6 cells (human fetal islet line), eGFP reporter, cell count. 130,000 compounds, 0.9% hits. reporter expression induced with tamoxifen. inhibition, % at 2 µM;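 active = inhibition above the mean plus 3 SD, with well images judged a real hit on visual review, cut at about 60% in these data, passing the limit was not always enough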
INS promoter inh cell count: recorded beside INS promoter inh, whose call it bears; normalized cell count, %; measured here: cell count, toxicity; reference of the scale not given here;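 cells exposed to compound for 48 h; stained nuclei by imaging scaled within each plate; lower means fewer cells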
HSV augment primary fold: also measured in HSV augment; calls as there; fold increase; compound at 10 µM; measured here: primary screen fold increase 10 uM; tested in PC3 cells;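 GFP signal in the first replicate; 1 = infected wells without compound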
An asterisk follows results filed as active; i = inactive; nt = no result given. Hits appear at their usual frequency (roughly 1.2% active in at least one column).

SMILES	HSV augment	HSV augment primary fold	PKD1 kinase inh	GALR2 ag	RGS16-Gao HTS	INS promoter inh	INS promoter inh cell count
COC(=O)C1=NNC2(C)C(=O)N(c3ccc(C)cc3)C(=O)C12 (stereo not drawn)	i	1.1	nt	nt	101	nt	nt
NCCCC[C@@H]1NC(=O)c2cc([N+](=O)[O-])cc(I)c2SC[C@@H](C(N)=O)NC(=O)[C@H](CCC(N)=O)NC1=O	i	0.82	-17	-0.3	92	-5	106
CCCCN(CC)Cc1ccc(CNC(=S)Nc2ccccc2F)o1	i	1	4	nt	101	nt	nt
COCCOC(=O)C(C#N)c1nc2ccccc2nc1N1CCN(Cc2ccccc2)CC1 (stereo not drawn)	i	0.84	6	0.2	99	nt	nt
COc1ccc(C2C(C(=O)c3sc(C)nc3C)=C(O)C(=O)N2CCN2CCOCC2)cc1 (stereo not drawn)	i	0.88	-11	-1.0	108	52	51
Cc1cc(C)c(S(=O)(=O)Nc2cc(SCC(=O)O)c(O)c3ccccc23)cc1C	i	0.75	-9	-1.5	75	7	113
COc1ccccc1N(CC(=O)Nc1cccc(C(F)(F)F)c1)S(C)(=O)=O	i	0.92	-1	nt	98	nt	nt
COc1ccc(CN(C(=O)CNC(=O)c2ccco2)C(C(=O)NC2CCCC2)c2ccco2)cc1 (stereo not drawn)	i	0.95	-1	-0.3	102	25	113
O=C(CSCc1cnn(-c2ccccc2)c1-n1cccc1)N1CCN(Cc2ccccc2)CC1	i	1.1	-4	-4.5	97	-49	107
COC(=O)c1ccc(C(=O)OC)c(NC(=O)COC(=O)c2ccccc2OC)c1	i	0.98	0	-0.5	105	-40	91
C=CCSc1nc2c(sc3nc(C)cc(C)c32)c(=O)[nH]1	i	0.95	3	-0.7	107	4	88
Cc1ccc2c(CC(=O)OCn3nnc4ccccc4c3=O)coc2c1	i	0.98	-3	-1.8	102	-7	154
C#CCOc1ccc(C2C3=C(COC3=O)Nc3cc4c(cc32)OCO4)cc1OC (stereo not drawn)	i	0.94	13	nt	105	nt	nt
Cc1ccc(-c2cc(C(=O)Nc3ccc(S(=O)(=O)Nc4onc(C)c4C)cc3)[nH]n2)c(O)c1	i	1.2	nt	nt	94	nt	nt
Cc1ccc(NC2=Nc3ccccc3CC2)cc1	i	1	-7	-0.2	103	-35	100
O=C(CCNC(=O)c1ccc(Cl)cc1)Nc1ccc(Cl)cc1F	i	1	-15	-0.2	102	nt	nt
CCc1nnc(NC(=O)CSc2nnc(CNc3cccc(C)c3)n2-c2ccccc2)s1	i	0.85	0	-1.3	59	9	109
NNC(=O)Cc1cn(-c2ncc(C(F)(F)F)cc2Cl)c2ccccc12	i	0.8	2	-2.6	52	26	197
O=C(Nc1cccnc1)c1cc2c(ccc3ccccc32)o1	i	0.84	-2	-0.2	101	-11	155
CC(C)c1nc2oc3c(NCC4CCCO4)ncnc3c2c2c1CCC2 (stereo not drawn)	i	0.84	2	3.3	103	nt	nt
COc1ccc(NC(=O)CSc2nc3nc(-c4cccs4)cc(C(F)(F)F)c3c(=O)[nH]2)c(OC)c1	i	1	8	-1.9	67	8	141
CC(C)(C)c1cccc(/C=N/O)c1O	i	0.99	3	-1.4	101	nt	nt
COc1cccc(CNC(=O)Cc2csc(Nc3nc(=S)[nH]c4ccccc34)n2)c1	i	0.94	7	nt	101	0	147
COc1ccc(-c2noc(COc3ccc4c(c3)OCO4)n2)cc1	i	0.87	-10	-2.8	102	-131	143
COc1ccc2c(c1)cc1n2CCN2CCCN=C12	i	0.92	-4	-1.0	95	nt	nt
COc1ccc(CCNC(=O)c2nc(-c3cccs3)no2)cc1OC	i	1.1	-6	nt	85	55	54
CC1CC(C)CN(CC(=O)Nc2ccc3c(c2)OCCO3)C1 (stereo not drawn)	i	0.7	1	-0.1	105	-30	112
Cc1ccc(S(=O)(=O)N2CCN(C)CC2)cc1[N+](=O)[O-]	i	1.3	-7	0.3	99	3	47
CCn1ccnc1CN(C)Cc1cn(-c2ccccc2)nc1-c1ccc(OC)cc1F	i	1.1	1	nt	101	-39	92
COc1ccc(NC(=O)CSc2nc3ccccc3cc2Cc2ccccc2)cc1	i	1.2	-1	-2.0	93	-40	75
COC(=O)C1CC(=O)c2sccc2C1 (stereo not drawn)	i	1	8	0.1	100	-69	126
O=C(O)C(Cc1ccccc1)N1Cc2ccccc2C1=O (stereo not drawn)	i	0.99	1	11	99	-21	145
Cc1noc(C)c1C(=O)N1CCCC(C(=O)c2cccc(C(F)(F)F)c2)C1 (stereo not drawn)	i	1.1	3	nt	99	nt	nt
CCOC(=O)N1CCN(Cc2nc(C3CC3)no2)CC1	i	1.2	2	nt	101	nt	nt
CC1(C)CC(=O)C2=C(C1)NC(Nc1nc3ccccc3o1)=NC2c1ccccn1 (stereo not drawn)	i	0.91	4	nt	104	-13	134
Cc1cc(/C=N/NC(N)=S)c(C)n1-c1ccc(Cl)c(Cl)c1	i	0.61	-7	0.9	70	-14	67
O=S(=O)(NCCSc1nnnn1-c1ccccc1)c1cccs1	i	0.99	-5	-2.1	100	-35	172
COc1cc(C2Nc3c(F)cccc3C3C=CCC32)cc(Br)c1OC (stereo not drawn)	i	1.1	-7	nt	130	nt	nt
O=C(CNC1CCCCCC1)Nc1ccc(N2CCCC2)cc1	nt	nt	-4	-1.8	96	nt	nt
CC(=O)Nc1cc(-c2ccccc2)nn1Cc1ccc(Cl)cc1	i	1.2	-1	-2.3	90	nt	nt
CSc1nnc2c(n1)[nH]c1c(C)cccc12	i	1	-7	0.9	100	-55	148
COC(=O)c1ccc(NC2CC(=O)N(c3ccccc3C)C2=O)cc1 (stereo not drawn)	i	0.96	-3	-3.2	83	3	80
CCCCn1cnc2sc3c(c2c1=N)CCCC3	i	0.9	-1	0.2	97	-15	132
CCOC(=O)N1CCC(=NNc2ncc(C(F)(F)F)cc2Cl)CC1	i	0.83	0	nt	101	-33	116
COc1ccc(C(=O)CSc2nnc(Cn3nnc4ccccc43)n2C)cc1	i	1	-2	-1.3	105	3	134
C[C@H](NC(=O)OC(C)(C)C)C(=O)N/N=C/C1=Cc2ccccc2OC1	i	1	nt	nt	95	nt	nt
CCOc1ccc(CN(C)CC(=O)Nc2cc(OC)c([N+](=O)[O-])cc2C)cc1	i	1.2	-6	-1.3	141	nt	nt
O=C(Cn1cnc2c(nnn2Cc2ccc(F)cc2)c1=O)N1CCN(c2ccccc2)CC1	nt	nt	5	-2.1	89	-14	96
CCOC(=O)c1ccccc1NC(=O)Cn1cnc2c1c(=O)n(C)c(=O)n2C	i	0.94	-3	-0.8	-15*	45	107
NC1=NS(=O)(=O)NC1c1ccc(Br)cc1 (stereo not drawn)	i	1.1	7	nt	102	17	114
Nc1ccc2nn(-c3ccc(Cl)cc3)nc2c1	i	0.91	nt	nt	111	nt	nt
COc1cccc(C2c3c(oc4ccc(Cl)cc4c3=O)C(=O)N2c2cc(C)on2)c1OC (stereo not drawn)	i	1.1	-7	-0.1	118	-12	101
COc1ccccc1CNS(=O)(=O)c1cccc(S(=O)(=O)N2CCOCC2)c1	i	0.98	9	-1.8	91	nt	nt
COc1ccccc1CN(Cc1cc2cc(C)cc(C)c2[nH]c1=O)Cc1nnnn1CC1CCCO1 (stereo not drawn)	i	0.96	3	-1.7	100	nt	nt
N#Cc1cnc(SCC(=O)NNC(=O)COc2cccc3ccccc23)nc1N	i	0.97	-2	-0.1	112	nt	nt
O=C1CCCCCN1CP(=O)(O)CCc1ccccc1	i	1.1	-18	-2.3	101	nt	nt
O=C(CSc1ncccn1)Nc1ccc(S(=O)(=O)N2CCCCC2)cc1	i	0.93	4	-1.9	101	23	132
O=C1OCc2ccc(NC(=O)C3CCCCC3)cc21	i	0.84	2	-2.7	107	3	100
O=C(NC(Cc1ccccc1)C(=O)O)c1ccccc1 (stereo not drawn)	i	0.86	1	-0.7	105	nt	nt
CC(C)NS(=O)(=O)c1ccc(NC(=S)NC(=O)c2ccc(-c3ccccc3)cc2)cc1	i	1.1	-6	0.3	104	4	111

Structures from the list above that have two or more sulfur atoms, in the order listed:
SMILES	HSV augment	HSV augment primary fold	PKD1 kinase inh	GALR2 ag	RGS16-Gao HTS	INS promoter inh	INS promoter inh cell count
Cc1cc(C)c(S(=O)(=O)Nc2cc(SCC(=O)O)c(O)c3ccccc23)cc1C	i	0.75	-9	-1.5	75	7	113
C=CCSc1nc2c(sc3nc(C)cc(C)c32)c(=O)[nH]1	i	0.95	3	-0.7	107	4	88
CCc1nnc(NC(=O)CSc2nnc(CNc3cccc(C)c3)n2-c2ccccc2)s1	i	0.85	0	-1.3	59	9	109
COc1ccc(NC(=O)CSc2nc3nc(-c4cccs4)cc(C(F)(F)F)c3c(=O)[nH]2)c(OC)c1	i	1	8	-1.9	67	8	141
COc1cccc(CNC(=O)Cc2csc(Nc3nc(=S)[nH]c4ccccc34)n2)c1	i	0.94	7	nt	101	0	147
O=S(=O)(NCCSc1nnnn1-c1ccccc1)c1cccs1	i	0.99	-5	-2.1	100	-35	172
COc1ccccc1CNS(=O)(=O)c1cccc(S(=O)(=O)N2CCOCC2)c1	i	0.98	9	-1.8	91	nt	nt
O=C(CSc1ncccn1)Nc1ccc(S(=O)(=O)N2CCCCC2)cc1	i	0.93	4	-1.9	101	23	132
CC(C)NS(=O)(=O)c1ccc(NC(=S)NC(=O)c2ccc(-c3ccccc3)cc2)cc1	i	1.1	-6	0.3	104	4	111

Further entries follow:
SMILES	HSV augment	HSV augment primary fold	PKD1 kinase inh	GALR2 ag	RGS16-Gao HTS	INS promoter inh	INS promoter inh cell count
COc1c2c(nc3ccccc13)OC(C(C)(O)CO)C2 (stereo not drawn)	i	0.88	-2	-1.7	102	25	68
CCOC(=O)C(CC)n1nc(C)n2c(cc3occc32)c1=O (stereo not drawn)	i	0.77	1	-1.9	95	-12	82
O=C(CSc1nc2ccccc2[nH]1)NCc1ccc(F)cc1	i	0.94	-5	nt	103	nt	nt
S=c1[nH]c2ncccc2o1	i	0.9	5	-0.9	98	nt	nt
Clc1ccc(-c2cn3c(n2)CCC3)cc1	i	0.92	3	-0.4	117	nt	nt
CN1CCN(c2nc(-c3cc4ccccc4o3)cs2)CC1	i	0.97	-15	1.0	104	30	106
CCCCCOc1ccc(NC(=O)C(=O)NCCC2=CCCCC2)cc1	i	0.91	-8	-0.6	105	-13	101
CCCCN(C)C(=O)c1cn(C)c2ccc(S(=O)(=O)N(C)C)cc2c1=O	i	1.1	-7	-1.6	101	nt	nt
COc1ccc(-n2nc3c(c2NC(=O)Cc2cccc(C)c2)CS(=O)C3)cc1 (stereo not drawn)	i	0.94	-3	-2.2	96	nt	nt
CCOc1ccc(C(C)=O)cc1CSc1nnc(-c2ccncc2)n1CCOC	i	0.74	1	nt	98	nt	nt
Cc1n[nH]c(C)c1N=Nc1ccc(Br)cc1	i	0.9	-6	nt	101	nt	nt
